Source: PubChem BioAssay (National Center for Advancing Translational Sciences (NCATS))
HPGD block: qHTS Assay for Inhibitors of HPGD (15-Hydroxyprostaglandin Dehydrogenase); 15-hydroxyprostaglandin dehydrogenase [NAD(+)] (Homo sapiens), P15428; purified HPGD, NADH fluorescence kinetic, PGE2 substrate; Potency, µM, for inactives: top-dose activity change, negative = inhibition, actives largely listed as inhibitors; 150,000 tested, 4.3% active; active = well fitted inhibition curve with a large enough effect (not every such curve was filed as active); inconclusive = small, poorly fitted or top-dose-only effect, or another doubt; inactive = no such curve, though single readings can be large or run the other way;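 also: top concentration of the series not given in the record; plate controls included wells without enzyme; inactives centre near -10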
Target sequence (P15428 whole entry, looked up): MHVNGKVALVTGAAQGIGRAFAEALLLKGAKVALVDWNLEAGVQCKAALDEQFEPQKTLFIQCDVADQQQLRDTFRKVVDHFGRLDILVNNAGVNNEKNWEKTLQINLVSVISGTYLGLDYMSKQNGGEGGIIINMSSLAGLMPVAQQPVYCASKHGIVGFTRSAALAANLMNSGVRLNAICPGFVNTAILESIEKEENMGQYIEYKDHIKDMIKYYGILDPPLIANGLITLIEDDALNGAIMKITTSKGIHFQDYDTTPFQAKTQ
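NADH formation kinetics: reaction with 30 uM PGE2 and 1 mM NAD+ (final), 20 nM enzyme, Tris-HCl pH 8 with Tween 20, after 15 min compound preincubation at room temperature. Fluorescence change, last versus first of five reads.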
* = called active by the depositor; ? = inconclusive; & = joins results of further samples. % is scaled to controls: 0 for no effect and ±100 for the full control effect; potency is read from the fitted curve at half-maximal effect. A portion of the library; count on the stated rates, not on these rows.

SMILES | HPGD block
COc1ccccc1/C=N/NC(=O)C(=O)N1CCN(c2ccccc2OC)CC1 | -3%
CCOC(=O)C1CCN(C(=O)c2cn(C)c(=O)c3cc(OC)c(OC)cc23)CC1 | -14%
O=C1c2ccccc2C(=O)N1CCCOCc1c[nH]c(=O)[nH]c1=O | -9%
CN1C(=O)NC(NC(=O)c2cccs2)(C(F)(F)F)C1=O (centres undefined) | -15%
O=C1OCCC1Sc1nc2ccccc2n1Cc1ccccc1 (centres undefined) | 0%
Cn1c(=Nc2ccccc2)sc2ccccc21 | -29%
O=C(Nc1ccc2c(c1)OCCO2)C1CCN(S(=O)(=O)Cc2ccccc2)CC1 | -1%
Cn1c(CNC(=O)c2ccc(Cl)c(Cl)c2)nnc1SCC(=O)Nc1sc2c(c1C#N)CCCC2 | -22%
FCCCOc1ccc(-c2nccc(-c3ccc(F)cc3)n2)cc1 | -27%
OC(c1ccccc1)c1nccn1Cc1ccccc1 (centres undefined) | -13%
COc1cc(C(=O)NC(=S)NCc2ccco2)cc(OC)c1OC | -22%
O=C(CSc1ncccn1)N/N=C/c1cccc([N+](=O)[O-])c1 | -1%
COc1ccc(N=Cc2c(O)c3ccccc3oc2=O)cc1 | -9%
COc1ccc(C)cc1NC(=O)Nn1cnnc1 | -2%
CCn1ncc(Br)c1C(=O)Nc1nccs1 | 25µM*
Cc1cc[n+](CC(=O)Nc2cc(C(F)(F)F)ccc2Cl)cc1 | -12%
Cc1ccc(CNc2ccc(S(=O)(=O)N3CCOCC3)cc2[N+](=O)[O-])cc1 | -9%
Cc1c(C(=O)Nc2nnc(SCc3ccccc3Cl)s2)cccc1[N+](=O)[O-] | -7%
Cc1nc2c(Br)c3nc(C(F)(F)F)[nH]c3c(Br)c2[nH]1 | -9%
O=C(CSc1nc2ccc(NC(=O)CSc3nnnn3-c3ccccc3)cc2s1)Nc1ccccc1 | ?
CCOC(=O)c1cnn(Cc2ccccc2)c1N | -14%
O=c1[nH]c2ccc(S(=O)(=O)N3CCCCC3)cc2[nH]c1=O | -19%
O=C(O)COc1ccc(S(=O)(=O)NCCc2ccccc2)cc1 | -9%
COc1ccc(CCn2nnnc2C(CC(C)C)N2CCN(c3ncccn3)CC2)cc1OC (centres undefined) | -11%
Cc1noc(C)c1Cc1ccc(O)cc1 | -12%

HPGD block, entries above that show a hit
SMILES | HPGD block
CCn1ncc(Br)c1C(=O)Nc1nccs1 | 25µM*

Other records
SMILES | HPGD block
Cc1ccccc1-c1noc(C23CC4CC(CC(C4)C2)C3)n1 | -3%
CCn1c(SCC(=O)Nc2nc3c(s2)CCCC3)nc2c1c(=O)n(C)c(=O)n2C | 1%
COC(=O)C1CC(O)CN1C(=O)c1ccco1 (centres undefined) | -12%
COc1ccc(OC)c2c1sc(=NC(=O)C(C)C)n2C | -21%
CC1(C)CC(=O)C(C(c2ccncc2)C2C(=O)CC(C)(C)CC2=O)C(=O)C1 | 2%
CC(Nc1cc(=O)n(C)c(=O)n1C)c1ccccc1 (centres undefined) | 1%
O=C(CCSCc1ccccc1Cl)N1CCN(c2ccccn2)CC1 | -15%
CC(=O)N1CCc2c(sc3c2c(=O)n(-c2ccccc2)c(=O)n3Cc2ccccc2Cl)C1 | -8%
O=C1C=C(OCc2ccccc2)CN1 | -8%
CN(Cc1ccccc1)S(=O)(=O)c1ccc(NC(=S)NC(=O)C2CCCCC2)cc1 | -7%
Cc1ccc(OCC(=O)NNC(=O)c2ccoc2C)c(Br)c1 | -21%
CCC(=O)N1CCN(c2ccccc2NC(=O)Cc2ccccc2)CC1 | -21%
C/C(=N/NC(=O)Nc1ccccc1)c1ccc(C)cc1 | -7%
CN(C)P(=NC(=O)COc1ccc(Cl)cc1Cl)(N(C)C)N(C)C | -2%
COc1ccnc(CSC(N)=Nc2ccccc2OC)c1 | -8%
CCOC(=O)N1CCN(Cc2nc3c(c(=O)[nH]c(=O)n3C)n2CCCc2ccccc2)CC1 | 3%
CC12CN3CC(C)(CN(C1)C3c1cc(Br)ccc1O)C2=O (centres undefined) | 1%
COc1ccc(OC)c(CNC(=O)CCNC(=O)Cn2ccc3ccccc3c2=O)c1 | 0%
COc1cc2c(cc1OC)C(Nc1ccccc1)=NC(C)(C)C2 | -9%
O=C(Nc1sc2c(c1C(=O)O)CCCC2)c1cccs1 | 25µM*
CC(C)CCOc1ccc(Cl)cc1CN1CCOCC1 | -18%
COc1ccc(-c2nc(N)c3ncn([C@H]4O[C@@H](CO)[C@@H](O)[C@@H]4O)c3n2)cc1 | -4%
Cc1ncn(C23CC4CC(CC(O)(C4)C2)C3)n1 | -6%
Cc1ccc(-n2c(N)c(C(=O)Nc3c(C)n(C)n(-c4ccccc4)c3=O)c3nc4ccccc4nc32)cc1 | ?
O=C(NC(=S)Nc1ccc(N2CCOCC2)cc1)c1ccc2c(c1)OCCO2 | ?

A second format for some results above.
| mol | HPGD block |
| --- | --- |
| O=C(CSc1nc2ccc(NC(=O)CSc3nnnn3-c3ccccc3)cc2s1)Nc1ccccc1 | ? |
| CC12CN3CC(C)(CN(C1)C3c1cc(Br)ccc1O)C2=O (centres undefined) | 1% |
| CCOC(=O)c1cnn(Cc2ccccc2)c1N | -14% |
| COc1cc(C(=O)NC(=S)NCc2ccco2)cc(OC)c1OC | -22% |
| CN(Cc1ccccc1)S(=O)(=O)c1ccc(NC(=S)NC(=O)C2CCCCC2)cc1 | -7% |
| O=c1[nH]c2ccc(S(=O)(=O)N3CCCCC3)cc2[nH]c1=O | -19% |

Next structures:
SMILES | HPGD block
CCC(c1nnnn1Cc1ccco1)N(CCc1ccccc1)Cc1cc2cccc(C)c2[nH]c1=O (centres undefined) | -19%
COCCCNC(=O)C(C#N)c1nc2ccccc2nc1N1CCN(Cc2ccccc2)CC1 (centres undefined) | -9%
CCOc1nc(Nc2cc(Cl)ccc2OC)nc(OCC)n1 | -18%
O=C(CN1C(=O)COc2ccccc21)NCCCN1CCN(Cc2ccccc2)CC1 | -12%
COc1cc(NC(=O)COC(=O)C2CC2)c(C)cc1[N+](=O)[O-] | -3%
O=C(NC1CCCC1)c1ccc(COCC(F)(F)F)o1 | -2%
C/C(=N\NS(=O)(=O)c1ccc(Cl)cc1)c1ccc(NC(=O)c2ccco2)cc1 | -18%
CS(=O)(=O)Nc1cccc(C2=NN(S(C)(=O)=O)C(c3ccc4c(c3)OCO4)C2)c1 (centres undefined) | -11%
O=C(/C=C/c1ccccc1)NCCOc1ccccc1 | -18%
O=S(=O)(c1cc(Cl)cc(Cl)c1)N1CCCC1c1nc2ccccc2s1 (centres undefined) | -11%
O=c1c(Cl)c(N2CCN(c3ccc(F)cc3)CC2)cnn1C12CC3CC(CC(C3)C1)C2 | -13%
CCN1CCN(Cc2nc(N)nc(Nc3ccc(C)c(C)c3)n2)CC1 | -7%
CNC(=O)c1ccc(N(Cc2ccccc2C)S(C)(=O)=O)cc1 | 2%
O=C(C1CCC(CNS(=O)(=O)c2cccs2)CC1)N1CCCCC1 (centres undefined) | 3.2µM*
CC(NC(=O)CCN1C(=O)c2ccccc2C1=O)c1ccc2c(c1)CCCC2 (centres undefined) | -3%
COc1ccc(-c2nc3ccccc3c(=O)n2CCOc2ccc(C)cc2C)cc1 | ?
Fc1ccc(-c2ccnc3nc(N4CCOCC4)nn23)cc1 | ?
O=[N+]([O-])c1cc(S(=O)(=O)N2CCCCCC2)ccc1F | -4%
CN(C)Cc1ccccc1COc1ccccc1 | -16%
COc1cccc(OCCn2c(C)c(/C=N/n3cnnc3)c3ccccc32)c1 | -4%
O=c1cc(NCc2ccccc2)nc2n1CCCS2 | ?
CC(NC(=O)COc1cc(=O)n(C)c2ccccc12)c1ccc2c(c1)OCCO2 (centres undefined) | -12%
COCCC(=O)N(Cc1ccc2c(c1)OCO2)C(C(=O)NC1CCCCC1)c1ccncc1 (centres undefined) | -7%
CCn1ncc(C2=NOC(C(=O)NCc3ccc(Cl)cc3)C2)c1C (centres undefined) | -14%
CCOC(=O)N1CCN(C(=S)NC(=O)c2cncc(Br)c2)CC1 | ?

Ordered by number of heavy atoms (rising): part of the list above.
SMILES | HPGD block
Fc1ccc(-c2ccnc3nc(N4CCOCC4)nn23)cc1 | ?
CCN1CCN(Cc2nc(N)nc(Nc3ccc(C)c(C)c3)n2)CC1 | -7%
COc1ccc(-c2nc3ccccc3c(=O)n2CCOc2ccc(C)cc2C)cc1 | ?
O=C(CN1C(=O)COc2ccccc21)NCCCN1CCN(Cc2ccccc2)CC1 | -12%
COCCC(=O)N(Cc1ccc2c(c1)OCO2)C(C(=O)NC1CCCCC1)c1ccncc1 (centres undefined) | -7%

Further structures.
SMILES | HPGD block
COC(=O)C1=C(C)N=C2SC(C#N)=C(N)N2C1c1cccc(OC)c1 (centres undefined) | -10%
Cc1ccc(C(C[N+](=O)[O-])c2c(C)cc3ccccn23)cc1 (centres undefined) | -4%
CCOC(=O)c1cnc2cc(C)ccn2c1=O | ?
CC(C)OCCCNS(=O)(=O)c1ccc2c(c1)OCCO2 | -2%
Cc1cccc(N(C)C(=O)c2coc(=O)c3ccccc23)c1 | -5%
CN=Cc1c(NC)nc2c(C)cccn2c1=O | ?
CC1CC(C)(C)NC(=S)N1CCCC(=O)N1CCN(c2ccc(F)cc2)CC1 (centres undefined) | -2%
Cc1cccc(N)c1SC1CCCCC1O (centres undefined) | -5%
Cc1nn(Cc2ccccc2Cl)c(C)c1NC(=O)/C=C/c1cnn(C)c1 | -1%
O=C(c1cnc2n(c1=O)CCS2)N1CCCc2ccccc21 | -11%
CC(=O)OC1CC2C(C)(C)C(O)CC[C@@]2(C)C2CC[C@@]3(C)C(c4ccoc4)OC(=O)C4O[C@@]43[C@]12C (some centres undefined) | -2%
C=CCN1C(=NC(=O)CCC)SC2CS(=O)(=O)CC21 (centres undefined) | -3%
COc1cccc(C2C(C(=O)c3cc4cccc(OC)c4o3)=C(O)C(=O)N2c2cc(C)on2)c1OC (centres undefined) | -12%
O=C(NC1CCCC1)c1c[nH]c2ccc(F)cc2c1=O | -13%
Cc1ccc(C)c(S(=O)(=O)NCc2ccc(C(=O)NCc3ccco3)cc2)c1 | -29%
CN(Cc1ccccc1)c1nc2c(c(=O)[nH]c(=O)n2C)n1Cc1ccccc1Cl | -7%
CCCCOC(=O)C1=C(C)NC(=O)NC1c1ccc([N+](=O)[O-])s1 (centres undefined) | 1%
Cc1cc(C)cc(N2CCCC2=O)c1 | -15%
Cc1ccccc1N(CC(=O)Nc1ccc(F)cc1)S(C)(=O)=O | -4%
CCOc1cccc(OCCOCCNC(C)(C)C)c1 | -1%
COCCNC(=O)c1onc(CSc2ccccc2)c1C(=O)O | -5%
CC(C)(C)c1nn(-c2ccccc2)c2[nH]c(=O)c(CNCc3ccco3)cc12 | -16%
Cc1ccc(Nc2nc(N)nc(CSc3nncn3C)n2)cc1 | -8%
CCOC(=O)NCC(C#CCN(CC)CC)N(CC)CC (centres undefined) | -1%
O=C(Nc1cccc(-c2nc3cccnc3s2)c1)C1c2ccccc2Oc2ccccc21 | ?

Later entries.
SMILES | HPGD block
Cc1cccc(NC(=O)c2cc(Cl)ccc2[N+](=O)[O-])c1 | -14%
C=CCn1c(SCc2ccc3nonc3c2)nnc1-c1cccs1 | -25%
O=C(NCc1ccco1)C1CCCN(S(=O)(=O)c2cccc3cccnc23)C1 (centres undefined) | -9%
CCOc1ccc(N2C(=O)CC(N3CCN(c4ccccc4F)CC3)C2=O)cc1 (centres undefined) | -16%
COc1ccc(NS(=O)(=O)c2cc(NC(=O)c3ccc(F)cc3)ccc2OC)cc1 | ?
O=C(COc1ccc(F)cc1)NNC(=O)c1cc2ccccc2oc1=O | -16%
Cc1nc(N[C@@H](Cc2ccccc2)C(=O)O)c2oc3ccccc3c2n1 | -15%
Cc1c(N2C(=O)/C(=C\c3ccc(N(C)C)cc3)N(C)C2=S)c(=O)n(-c2ccccc2)n1C | -7%
O=[N+]([O-])c1cc(CN2CCCC2)c2cccnc2c1O | -9%
COc1cc(C2C(C#N)=C(C)NC(C)=C2C#N)cc(OC)c1OC | -27%
COC(=O)CSc1nc2c(c(C3CC=CCC3)c1C#N)CCC2 (centres undefined) | -11%
CC(C)n1c(=O)[nH]c2ccccc21 | -10%
COc1ccc(OC)c(NS(=O)(=O)c2ccc(NC(C)=O)cc2)c1 | -14%
CCC(=O)Nc1cccc(NC(=S)NC(=O)c2ccccc2Cl)c1 | -5%
COC(=O)c1ccccc1S(=O)(=O)N1CCC(c2nc3ccccc3o2)CC1 | -4%
O=C(NC12CC3CC(CC(C3)C1)C2)N1CCC(O)(c2ccc3c(c2)OCO3)CC1 | -13%
COC(=O)C1C(=O)CC(C)(O)C(C(=O)OC)C1c1ccccc1F (centres undefined) | 0%
COC(=O)C1(C)NC(c2ccc(O)cc2)C2C(=O)N(c3ccc4c(c3)OCCO4)C(=O)C21 (centres undefined) | -2%
Cc1ccc(S(=O)(=O)Cn2nnnc2CN2CCN(Cc3ccc4c(c3)OCO4)CC2)cc1 | -10%
CC(C)c1nnc(NC(=O)CCC(=O)N2CCN(C3c4ccccc4-c4ccccc43)CC2)s1 | -1%
Nc1nc(Nc2ccccc2)nc2c1ncn2[C@@H]1O[C@H](CO)[C@H](O)[C@H]1O | -12%
O=c1cc(-c2ccccc2O)oc2ccc3ccccc3c12 | -1%
NNC(=O)c1ccncc1 | -12%&-7%&1%&-6%
c1ccc(CCc2nc(-c3ccccn3)no2)cc1 | 2%
COc1nccnc1NS(=O)(=O)c1ccc(NS(=O)(=O)c2ccc(NC(C)=O)cc2)cc1 | -14%
O=C(CCS(=O)(=O)Cc1ccc(Cl)cc1)NCCCN1CCOCC1 | -7%
O=C(NCc1ccccn1)c1cc2ccccc2oc1=O | ?
Clc1ccc(Cc2noc(Cc3ccccc3)n2)cc1Cl | -4%
Cc1onc(-c2ccccc2Cl)c1C(=O)Nc1cccc2nsnc12 | ?
COc1ccc(N2CCn3c2nc2c3c(=O)n(CCCc3ccccc3)c(=O)n2C)c(OC)c1 | -29%
